Vaccinia Venus: vaccinia inhibition (Venus reporter) | Vaccinia virus Venus reporter expression, fluorescence | Potency, µM (highest dose often 36.5 µM), without a hit: top-dose activity change, negative = inhibition, most hits filed as inhibitors | hit rate 0.46% among 330,000 | AID 720580; active means well fitted inhibition curve with a large enough effect; inconclusive means small, poorly fitted or top-dose-only effect; inactive means no such curve, though single readings can be large or run the other way; tested in A549 cells; note: nearly all actives have a fitted effect of over 30% in size; inactives centre near -10
VACV mCherry inh: inhibitors of vaccinia virus infection (mCherry reporter signal). Vaccinia virus mCherry reporter infection, fluorescence; about a quarter of the inactives have no number. Potency, µM (series often up to 36.5 µM), for the others: at the highest dose activity change, negative = inhibition, hits mostly inhibitors. hit rate 0.63% among 310,000; active = well fitted inhibition curve with a large enough effect; inconclusive = small, poorly fitted or top-dose-only effect; inactive = no such curve, though single readings can be large or run the other way; tested in A549 cells; note: nearly all actives have a fitted effect of over 35% in size; inactives centre near -10
* marks the source's active call; other numbers are inactive results. % is set by controls: 0 for no effect and ±100 for the full control effect; potency is the fitted concentration of half-maximal effect.

The first 5 records as a preview:
How did CCCOC(=O)CSC1=C(C#N)C(c2ccccc2Cl)CC(=O)N1 (configuration not stated) do in these assays?
Vaccinia Venus: -15%; VACV mCherry inh: -28%

What do the screens show for `COCC(C)n1c(C)cc(C(=O)CSc2nnc(N)s2)c1C` (configuration not stated)?
Vaccinia Venus: -8%

Results for CCCCc1nc(S(=O)(=O)c2ccc(Cl)cc2)c(N2CCOCC2)o1 ?
Vaccinia Venus: -13%; VACV mCherry inh: -27%

Results for COc1ccc(/C=N/Nc2nc3ccccc3s2)cc1O ?
Vaccinia Venus: -15%; VACV mCherry inh: -6%

How did C=CCSc1nc2sc3c(c2c(=O)[nH]1)CCC3 do in these assays?
Vaccinia Venus: -1%; VACV mCherry inh: 1%

This part in full, previewed entries included:
How did CCCOC(=O)CSC1=C(C#N)C(c2ccccc2Cl)CC(=O)N1 (configuration not stated) do in these assays?
Vaccinia Venus: -15%; VACV mCherry inh: -28%

What do the screens show for `COCC(C)n1c(C)cc(C(=O)CSc2nnc(N)s2)c1C` (configuration not stated)?
Vaccinia Venus: -8%

Results for CCCCc1nc(S(=O)(=O)c2ccc(Cl)cc2)c(N2CCOCC2)o1 ?
Vaccinia Venus: -13%; VACV mCherry inh: -27%

Results for COc1ccc(/C=N/Nc2nc3ccccc3s2)cc1O ?
Vaccinia Venus: -15%; VACV mCherry inh: -6%

How did C=CCSc1nc2sc3c(c2c(=O)[nH]1)CCC3 do in these assays?
Vaccinia Venus: -1%; VACV mCherry inh: 1%

How did CCCn1c(C)cc(C(=O)COC(=O)c2ccc(Cl)c(S(=O)(=O)N3CCCC3)c2)c1C do in these assays?
Vaccinia Venus: -10%

Results for CN(C)C(=O)CCSc1nnc(-c2ccncc2)o1 ?
Vaccinia Venus: -10%; VACV mCherry inh: 0%

Results for CCOC(=O)C#CC(CCc1ccccc1)OS(N)(=O)=O (configuration not stated) ?
Vaccinia Venus: -28%; VACV mCherry inh: -8%

What do the screens show for `Clc1ccc(-c2cn3cccnc3n2)cc1`?
Vaccinia Venus: -12%

Results for C=CCn1cccc(/C=C/C(=O)c2ccc(C(C)(C)C)cc2)c1=S ?
Vaccinia Venus: inconclusive; VACV mCherry inh: inconclusive

Results for Cc1nn(Cc2ccccc2)c(C)c1NC(=O)CCC(=O)O ?
Vaccinia Venus: 11%

Results for C[C@H](CO)N1C[C@H](C)[C@@H](CN(C)S(=O)(=O)c2cccc(C#N)c2)OCc2cnnn2CCCC1=O ?
Vaccinia Venus: -10%; VACV mCherry inh: inactive

What do the screens show for `CCOc1ccc(OCCC(=O)Nc2cccc(S(=O)(=O)N3CCCC3)c2)cc1`?
Vaccinia Venus: -20%; VACV mCherry inh: inconclusive

How did CCn1c(CC(=O)Nc2ccc(C)c(Cl)c2)nnc1SCc1ccc(Cl)c(Cl)c1 do in these assays?
Vaccinia Venus: -4%; VACV mCherry inh: -10%

How did CCOC(=O)c1c(C)[nH]c(C)c1S(=O)(=O)N1CCCC(C(=O)NCc2ccc(N(C)C)cc2)C1 (configuration not stated) do in these assays?
Vaccinia Venus: -2%; VACV mCherry inh: -7%

Results for Cc1ccc(S(=O)(=O)N2CC3C(=O)C[C@@H](c4ccccc4)N(S(=O)(=O)c4ccc(CCCOCCOCCNC(=O)OC(C)(C)C)cc4)C3CC2c2ccccc2)cc1 (some centres not stated) ?
Vaccinia Venus: -28%; VACV mCherry inh: 1%

What do the screens show for `c1cncc(CN2CCN(c3cc(-c4cnc5ccccc5c4)nc4ccnn34)CC2)c1`?
Vaccinia Venus: -8%; VACV mCherry inh: inactive

What do the screens show for `COc1cccc(C(=O)NC2CC3CCCC(C2)N3CC(=O)Nc2ccccc2C(F)(F)F)c1` (configuration not stated)?
Vaccinia Venus: inconclusive; VACV mCherry inh: inconclusive

What do the screens show for `COC(=O)C1=C(c2ccc(OC(F)(F)F)cc2)C[C@@H]2CC[C@H]1N2C(=O)N1CCCCC1`?
Vaccinia Venus: inconclusive; VACV mCherry inh: -15%

What do the screens show for `COc1cccc(CC(=O)OCC(=O)c2cc(OC)c(OC)c(OC)c2)c1`?
Vaccinia Venus: -15%; VACV mCherry inh: -8%

How did COc1ccc(S(=O)(=O)Cc2ccc(C(=O)NCC(OC)OC)o2)cc1 do in these assays?
Vaccinia Venus: -13%; VACV mCherry inh: inactive

What do the screens show for `O=C(N/N=C/c1cccnc1)c1cccc(NC(=O)c2cccc(Br)c2)c1`?
Vaccinia Venus: 2%; VACV mCherry inh: inconclusive

What do the screens show for `Cc1ccc(S(=O)(=O)N2CCN(CC(=O)NCC3(N4CCOCC4)CCCCC3)CC2)cc1`?
Vaccinia Venus: -8%; VACV mCherry inh: inactive

What do the screens show for `O=C(Nc1ccc(C(=O)N2CCCCC2)cc1)c1nsc2ccccc12`?
Vaccinia Venus: -2%; VACV mCherry inh: -7%

How did CCOc1cnc(C(=O)NNC(=O)c2ccccc2Br)o1 do in these assays?
Vaccinia Venus: -1%; VACV mCherry inh: -11%

What do the screens show for `CCOC(=O)C1CC(c2ccccc2)=NN1c1ccccc1` (configuration not stated)?
Vaccinia Venus: -13%; VACV mCherry inh: inconclusive

What do the screens show for `Cc1cc(OCCn2c(C3CC(=O)N(Cc4ccc(F)cc4)C3)nc3ccccc32)ccc1Cl` (configuration not stated)?
Vaccinia Venus: -17%; VACV mCherry inh: -18%

What do the screens show for `COc1ccccc1NS(=O)(=O)c1cc(C(=O)NCC(c2ccco2)N2CCCCC2)ccc1C` (configuration not stated)?
Vaccinia Venus: -19%; VACV mCherry inh: -7%

Results for O=C(CSc1nccc(=O)[nH]1)Nc1ccccc1Sc1ccccc1 ?
Vaccinia Venus: 10%; VACV mCherry inh: 0%

How did CC12CC3(C)CC(C)(C1)CC(C(=O)NC(=S)N1CCCC1)(C2)C3 do in these assays?
Vaccinia Venus: -18%; VACV mCherry inh: -16%

How did Cc1ccc(S(=O)(=O)N2CCN(C(=O)CCC(=O)NCCc3ccc(S(N)(=O)=O)cc3)CC2)c(C)c1 do in these assays?
Vaccinia Venus: -12%; VACV mCherry inh: -22%

What do the screens show for `Cc1oc(-c2cccs2)nc1CN1CCN(CCC(C)C)C(CCO)C1` (configuration not stated)?
Vaccinia Venus: -14%; VACV mCherry inh: -4%

How did COC(=O)c1sccc1NC(=O)c1ccc(C(C)C)cc1 do in these assays?
Vaccinia Venus: -22%; VACV mCherry inh: inactive

What do the screens show for `CCOC(=O)C1=C(COC(=O)[C@H](C)NS(=O)(=O)c2ccccc2F)NC(=O)NC1C` (some centres not stated)?
Vaccinia Venus: -10%; VACV mCherry inh: inactive

What do the screens show for `COc1cc(CN2CCc3c([nH]c4ccccc34)C2)cc(OC)c1`?
Vaccinia Venus: -9%; VACV mCherry inh: inactive

What do the screens show for `Cc1cc2ccccc2n1CCNC(=O)Cc1cccc2ccccc12`?
Vaccinia Venus: 1%; VACV mCherry inh: inactive

Results for N#CCCn1c(SCC(=O)N2CCN(S(=O)(=O)c3ccccc3)CC2)nc2ccccc21 ?
Vaccinia Venus: -5%; VACV mCherry inh: -11%

What do the screens show for `O=C(NC(=S)N(Cc1ccccc1)c1ccccn1)C1CCCCC1`?
Vaccinia Venus: 0%; VACV mCherry inh: -8%

How did Cc1cccc[n+]1C1C(c2ccc([N+](=O)[O-])cc2)C(C#N)=C(C(=C=[N-])C#N)NC1(O)C1CC1 (configuration not stated) do in these assays?
Vaccinia Venus: -1%; VACV mCherry inh: inactive

How did Cc1nc(-c2ccccc2)sc1CCNC(=O)C(=O)Nc1ccc(F)c(Cl)c1 do in these assays?
Vaccinia Venus: -1%; VACV mCherry inh: 3%

Results for Cc1ccc(C)c(NC(=O)CCn2nc(C)c3c(C)n(-c4ccccc4)nc3c2=O)c1 ?
Vaccinia Venus: -14%; VACV mCherry inh: -14%

Results for CCOC(=O)[C@H]1[C@H]2COc3ccc(Br)cc3[C@@H]2N2C(=O)CN(Cc3ccc(F)cc3)C(=O)[C@@]12C ?
Vaccinia Venus: -14%; VACV mCherry inh: inactive

Results for COCCCNC(=S)N1CCN(c2ccccc2)CC1 ?
Vaccinia Venus: -5%; VACV mCherry inh: -2%

Results for O=C1c2ccccc2S(=O)(=O)N1CC1CC(c2ccccc2)=NO1 (configuration not stated) ?
Vaccinia Venus: -13%

What do the screens show for `COc1ccc2oc(=O)c(C(=O)N3CCN(c4ccccc4)CC3)cc2c1`?
Vaccinia Venus: -11%; VACV mCherry inh: inactive

How did COCCNC(=O)C(c1ccc(F)cc1)N(Cc1ccccc1)C(=O)CCC(=O)Nc1nccs1 (configuration not stated) do in these assays?
Vaccinia Venus: 5%; VACV mCherry inh: -14%

How did Cc1ccccc1-c1nc(NCc2cccnc2)c2ccccc2n1 do in these assays?
Vaccinia Venus: 7%; VACV mCherry inh: 5%

How did NC(=O)c1sc2nc(-c3cccnc3)ccc2c1N do in these assays?
Vaccinia Venus: -22%; VACV mCherry inh: inconclusive

What do the screens show for `Cc1ccc(NC(=O)CN2C(=O)CSC2=O)cc1`?
Vaccinia Venus: 1%

What do the screens show for `Cc1cccc(NC(=O)c2ccco2)c1C(=O)O`?
Vaccinia Venus: -3%; VACV mCherry inh: inactive

4 consecutive records already listed, quoted:
How did CCCOC(=O)CSC1=C(C#N)C(c2ccccc2Cl)CC(=O)N1 (configuration not stated) do in these assays?
Vaccinia Venus: -15%; VACV mCherry inh: -28%

What do the screens show for `COCC(C)n1c(C)cc(C(=O)CSc2nnc(N)s2)c1C` (configuration not stated)?
Vaccinia Venus: -8%

Results for CCCCc1nc(S(=O)(=O)c2ccc(Cl)cc2)c(N2CCOCC2)o1 ?
Vaccinia Venus: -13%; VACV mCherry inh: -27%

Results for COc1ccc(/C=N/Nc2nc3ccccc3s2)cc1O ?
Vaccinia Venus: -15%; VACV mCherry inh: -6%

More records follow.
Results for COc1ccc(-c2nnc3n(CCc4ccccc4)c(=O)c4ccccc4n23)cc1OC ?
Vaccinia Venus: -21%; VACV mCherry inh: inactive

How did COc1ccccc1C(=O)COC(=O)C(CCSC)NC(=O)COc1ccccc1 (configuration not stated) do in these assays?
Vaccinia Venus: -5%; VACV mCherry inh: -11%

How did Cc1nn(C)c2c1c(C(F)(F)F)cc(=O)n2C(C)C(=O)Nc1ccccc1F (configuration not stated) do in these assays?
Vaccinia Venus: -9%; VACV mCherry inh: -13%

What do the screens show for `CCCCCCC(=O)Nc1nc(C)c(-c2csc(Nc3cc(OC)ccc3OC)n2)s1`?
Vaccinia Venus: inconclusive; VACV mCherry inh: inconclusive

How did O=C(CC(c1ccccc1)c1ccccc1)Nc1ccncc1 do in these assays?
Vaccinia Venus: -9%; VACV mCherry inh: -25%

How did CC(C)OCCCNC(=O)Cc1ccc(F)cc1 do in these assays?
Vaccinia Venus: 3%; VACV mCherry inh: -22%

How did CCC(C)c1ccccc1N1CC(C(=O)Nc2cc(S(=O)(=O)N3CCOCC3)ccc2OC)CC1=O (configuration not stated) do in these assays?
Vaccinia Venus: -11%; VACV mCherry inh: -22%

What do the screens show for `Cc1ccccc1CCNC(=O)c1ccc2c(c1)nc1n2CCC(C)C1` (configuration not stated)?
Vaccinia Venus: -11%; VACV mCherry inh: -16%

Results for O=C(/C=C/c1cccc(Cl)c1)c1ccc([N+](=O)[O-])o1 ?
Vaccinia Venus: 10µM*; VACV mCherry inh: 10µM*

How did C=CCn1c(=O)/c(=C/c2cc(OC)c(OC)c(OC)c2)s/c1=C(/C#N)c1nc2ccccc2n1C do in these assays?
Vaccinia Venus: -8%; VACV mCherry inh: -8%

What do the screens show for `C/C(=N\NC(=O)c1cc(-c2cccc([N+](=O)[O-])c2)n[nH]1)c1ccccc1O`?
Vaccinia Venus: inconclusive; VACV mCherry inh: 10µM*

What do the screens show for `COCCSc1nnc(NC(=O)c2ccco2)s1`?
Vaccinia Venus: -9%; VACV mCherry inh: inactive

What do the screens show for `CCOC(=O)c1cc(-c2ccccc2)n(CCC(=O)NC2CCCCC2)c1C`?
Vaccinia Venus: -2%; VACV mCherry inh: -10%

How did CC(=O)c1ccc(N2C(=O)N(CC(=O)c3ccc(C)cc3)c3ccccc3S2(=O)=O)cc1 do in these assays?
Vaccinia Venus: 0%; VACV mCherry inh: 8%

Results for COc1ccc(Cl)cc1C(=O)Nc1c2c(nn1-c1ccc(Cl)cc1)CS(=O)(=O)C2 ?
Vaccinia Venus: -3%; VACV mCherry inh: -15%

How did COc1ccc(-c2nc3ccccc3n3c(-c4cccc(C)c4)c4c(=O)n(C)c(=O)n(C)c4c23)cc1OC do in these assays?
Vaccinia Venus: -8%; VACV mCherry inh: -17%

What do the screens show for `O=C(CSc1nnnn1C1CCCC1)N1CCN(C(=O)c2ccco2)CC1`?
Vaccinia Venus: -5%; VACV mCherry inh: -22%

What do the screens show for `O=C(NCc1ccc2c(c1)OCO2)C1CCN(Cc2cnn(-c3ccccc3)c2-n2cccc2)CC1`?
Vaccinia Venus: -20%

Results for O=c1c2[nH]c3ccc(F)cc3c2nc2n1CCCS2 ?
Vaccinia Venus: -13%; VACV mCherry inh: inactive

Results for Cc1ccc(-c2nnc(N(C)C(=O)c3cccnc3)s2)cc1 ?
Vaccinia Venus: -24%; VACV mCherry inh: -26%

What do the screens show for `Cc1ccccc1CN1[C@@H](Cc2ccccc2)COCCS1(=O)=O`?
Vaccinia Venus: -16%; VACV mCherry inh: -27%

Results for CCN(CCO)c1ccc(N=Cc2c(O)n(C)c(=S)[nH]c2=O)cc1 ?
Vaccinia Venus: -27%; VACV mCherry inh: -22%

How did Cc1cc(NC(=O)c2cccnc2)cc(-c2nc3cc(Cl)ccc3o2)c1O do in these assays?
Vaccinia Venus: 3%; VACV mCherry inh: -14%

Source: PubChem BioAssay

An unsorted share of the library; overall some 0.87% were active at least once.
